CSC inhib – blocks cancer stem cells; cancer stem cell-like cells viability, luminescence; inhibition, % at 7.5 µM; actives 1.1% (n = 300,000); AID 2717;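 active = mean at 75% or more and at least half the replicates too; inconclusive = mean and replicates disagree; tested in HMLE shEcad cells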;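 note: 0% = median of negative and 100% = median of positive control wells; the first replicate is given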
Rce1 inhib – blocks yeast Ras-converting enzyme; Q03530; yeast membranes, quenched prenylated peptide cleavage fluorescence; calls only; actives 0.27% (n = 290,000); AID 2563;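 active = fall in fluorescence gain of 50% or more versus controls, with final raw signal at or below 3038400; inconclusive = same 50% fall but final raw signal above 3038400; inactive = fall in fluorescence gain under 50%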;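 note: plate controls were neutral control wells for no effect and wells lacking membranes for full effect; tested at 10 µM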
Target sequence (Q03530 whole entry, looked up): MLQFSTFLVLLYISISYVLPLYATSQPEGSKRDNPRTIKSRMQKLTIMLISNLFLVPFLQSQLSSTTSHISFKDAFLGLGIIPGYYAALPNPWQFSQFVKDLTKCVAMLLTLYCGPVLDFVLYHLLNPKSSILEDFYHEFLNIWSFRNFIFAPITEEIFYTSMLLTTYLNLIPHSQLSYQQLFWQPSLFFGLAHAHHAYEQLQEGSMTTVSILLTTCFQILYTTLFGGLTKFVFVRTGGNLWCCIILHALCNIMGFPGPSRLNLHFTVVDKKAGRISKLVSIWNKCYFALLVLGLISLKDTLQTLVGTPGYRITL
HIV Env fusion – inhibitors of HIV Env-mediated cell fusion. HeLa-JRFL Env/CEM21 cell fusion, luciferase. inhibition, % at 12.3 µM. actives 1.1% (n = 360,000). AID 651610;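 active = mean replicate inhibition score of at least 50 and every replicate individually at or above 50; inconclusive = only one of the two criteria met; inactive = mean below 50 and not all replicates reaching 50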;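 note: 0% = plate neutral controls and 100% = maraviroc near 300 nM; one replicate is shown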
MT1-MMP act inh – inhibitors of human MT1-MMP activation; actives 0.061% (n = 360,000); GFP/RFP ratio change, % at 20 µM; P50281; AID 651647; HT1080 RFP-PRO-GFP cells, GFP/RFP ratio fluorescence, overnight; percent of plate control window, DMSO zero;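 active = GFP/RFP ratio change of at least 30% with cell ATP level not reduced by more than half and red fluorescence within 50% of control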; note: strong numbers were not always called active
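Assay system – RFP-PRO-GFP reporter HT1080 cells · Compound dosing – single dose of 20 µM compound, 1% DMSO final · Incubation – overnight compound exposure at 37 °C · Measure – GFP/RFP fluorescence ratio · Benchmarks – DMSO wells and RFP-L50D-GFP cells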
Yeast UUG start – modulators of start codon recognition fidelity in yeast; S. cerevisiae UUG-firefly luciferase reporter, luminescence/redox ratio; actives 0.13% (n = 350,000); AID 602363; activity score, % at 18.7 µM;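 active = replicate mean at a twofold rise or more, about +100% in these data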;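 note: firefly luciferase made from a UUG start codon reports start codon fidelity; reporter light over untreated wells divided by growth signal over untreated wells; some hits fall short of that in this replicate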
eIF4H FP inh – inhibitors of RNA binding by human eIF4H. Q15056. eIF4H fluorescence polarization binding assay. inhibition, % at 35 µM. actives 0.94% (n = 290,000). AID 2012;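 active = 50% or more with normal probe brightness, or confirmed in later tests; inconclusive = above 50% with abnormal brightness, or retests that disagree; inactive = below 50% or failed in later tests; about a fifth of its hits are not listed in these tables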;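 note: calls also rest on retests at 20 µM and on dose response follow-up; 0% = protein and probe with vehicle and 100% = probe without protein; strong numbers were not always called active; many hits fall short of the cut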
PABP polyA inh – PABP-poly(A) binding inhibition | P11940 | PABP-poly(A) RNA binding, fluorescence polarization | inhibition, % at 35 µM | actives 1% (n = 290,000);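 active = 50% or more with normal probe brightness, or confirmed in later tests; inconclusive = above 50% with abnormal brightness, or retests that disagree; inactive = below 50% or failed in later tests; about a fifth of its hits are not listed in these tables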;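 note: calls also rest on retests at 20 µM and on dose response follow-up; controls were probe without protein and protein plus probe with vehicle; some compounds called inactive have numbers as strong as hits; many hits fall short of the cut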
Target sequence (P11940 whole entry, looked up): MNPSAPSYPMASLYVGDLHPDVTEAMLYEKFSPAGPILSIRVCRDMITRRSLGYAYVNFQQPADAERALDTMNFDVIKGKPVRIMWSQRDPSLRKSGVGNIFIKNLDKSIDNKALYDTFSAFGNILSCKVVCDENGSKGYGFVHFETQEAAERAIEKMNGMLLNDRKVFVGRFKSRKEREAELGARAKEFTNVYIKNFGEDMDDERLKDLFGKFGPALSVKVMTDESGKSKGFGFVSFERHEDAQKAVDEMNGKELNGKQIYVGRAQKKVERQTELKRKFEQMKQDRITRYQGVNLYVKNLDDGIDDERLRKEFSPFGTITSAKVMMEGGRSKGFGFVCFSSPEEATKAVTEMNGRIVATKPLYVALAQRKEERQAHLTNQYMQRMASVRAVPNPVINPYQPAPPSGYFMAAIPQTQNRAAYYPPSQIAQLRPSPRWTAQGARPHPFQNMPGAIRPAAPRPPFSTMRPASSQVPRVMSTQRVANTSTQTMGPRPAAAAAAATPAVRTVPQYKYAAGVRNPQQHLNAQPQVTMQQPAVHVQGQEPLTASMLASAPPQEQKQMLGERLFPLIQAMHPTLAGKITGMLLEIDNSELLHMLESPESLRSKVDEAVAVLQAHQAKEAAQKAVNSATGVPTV
eIF4H FP inh retest – recorded beside eIF4H FP inh, whose call it bears; inhibition, %; compound at 20 µM; confirmation average;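 mean of two retest wells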
PABP polyA inh retest – also measured in PABP polyA inh; calls as there; inhibition, %; compound at 20 µM; confirmation repeats;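 mean of two retest wells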
MT1-MMP act inh RFP – further read-out of MT1-MMP act inh, marked with its call; RFP signal change, %; measured here: RFP expression control read;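 0 = vehicle wells; hits needed this value within 50% of zero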
Active calls of the source: *; & = joins results of further samples; [ ] = another dose, or the depositor's remark.

Results for O=C1/C(=C/c2cccs2)N=C(c2cccs2)N1Nc1ccccc1 ?
CSC inhib: 15.4; Rce1 inhib: inactive; MT1-MMP act inh: -0.3; Yeast UUG start: -7.5; eIF4H FP inh: 31.1; PABP polyA inh: 23.4; MT1-MMP act inh RFP: -1.6

How did NC(=O)C1CCCN(C(=O)c2cccc(S(=O)(=O)N(Cc3ccccc3)c3ccccc3)c2)C1 (stereo not given) do in these assays?
HIV Env fusion: -60.4; MT1-MMP act inh: 0.1; Yeast UUG start: -18.7; MT1-MMP act inh RFP: -3.7

Results for O=C(COC(=O)c1ccc(O)cc1)Nc1ccc2c(c1)OCO2 ?
CSC inhib: -17.1; HIV Env fusion: 8.4; MT1-MMP act inh: -0.2; Yeast UUG start: -18.8; MT1-MMP act inh RFP: -3.0

What do the screens show for `CCOC(=O)C1CCN(C(=O)COC(=O)CSc2ccc(C(N)=O)cc2[N+](=O)[O-])CC1`?
CSC inhib: -2.2; Rce1 inhib: inactive; MT1-MMP act inh: 1.3; Yeast UUG start: -11.7; eIF4H FP inh: -4.5; PABP polyA inh: 1.3; MT1-MMP act inh RFP: 3.0

How did Cc1ccc2c(Cl)cc(Cl)c(OCC(=O)Nc3ccc(C)c(S(=O)(=O)N(C)C)c3)c2n1 do in these assays?
CSC inhib: 1.1; Rce1 inhib: inactive; eIF4H FP inh: 4.8; PABP polyA inh: -5.0

How did COc1ccc(N(C)S(=O)(=O)c2cccc(C(=O)N3CCN(c4cccc(C)c4C)CC3)c2)cc1 do in these assays?
HIV Env fusion: 8.8; MT1-MMP act inh: -7.9; Yeast UUG start: -2.0; MT1-MMP act inh RFP: -22.6

Results for O=C(N/N=C/c1cn[nH]c1-c1ccccc1)c1ccco1 ?
CSC inhib: 4.3; Rce1 inhib: inactive; HIV Env fusion: -2.2; MT1-MMP act inh: -2.4; eIF4H FP inh: -5.7; PABP polyA inh: 4.3; MT1-MMP act inh RFP: -2.2

What do the screens show for `Cc1ccc(/C=C/C(=O)c2ccc(O)cc2)cc1`?
CSC inhib: 30.4; Rce1 inhib: inactive; HIV Env fusion: -48.0; MT1-MMP act inh: -4.8; eIF4H FP inh: -1.7; PABP polyA inh: 8.1; MT1-MMP act inh RFP: -9.2

Results for Cc1c(NC(=O)CCN2C(=O)c3ccccc3C2=O)c(=O)n(-c2ccccc2)n1C ?
CSC inhib: -11.7; Rce1 inhib: inactive; MT1-MMP act inh: 4.1; eIF4H FP inh: -2.5; PABP polyA inh: -8.0; MT1-MMP act inh RFP: 3.7

Results for CCCCNC(=S)NNC(=O)c1cc(-c2ccncc2)nc2ccccc12 ?
Rce1 inhib: inactive; MT1-MMP act inh: 8.0; Yeast UUG start: -14.6; eIF4H FP inh: 19.7; PABP polyA inh: 1.3; MT1-MMP act inh RFP: 0.6

Results for COC(=O)c1scc(C)c1NC(=O)/C=C/C(=O)O ?
CSC inhib: 0.7; Rce1 inhib: inactive; HIV Env fusion: 13.0; MT1-MMP act inh: -3.6; eIF4H FP inh: 3.9; PABP polyA inh: 3.6; MT1-MMP act inh RFP: -3.1

How did CCn1cc(C(=O)NCCCN2CC(C)CC(C)C2)c(=O)c2cc(S(=O)(=O)N(C)C3CCCCC3)ccc21 (stereo not given) do in these assays?
CSC inhib: -5.7; Rce1 inhib: inactive; HIV Env fusion: 3.2; MT1-MMP act inh: -4.6; Yeast UUG start: -17.9; eIF4H FP inh: -14.4; PABP polyA inh: -6.9; MT1-MMP act inh RFP: -2.4

How did CC(C)c1nnc(NC(=O)CCC(=O)N2CCN(C3CCCCC3)CC2)s1 do in these assays?
CSC inhib: -3.6; Rce1 inhib: inactive; MT1-MMP act inh: -2.9; Yeast UUG start: -8.0; eIF4H FP inh: -2.6; PABP polyA inh: -6.7; MT1-MMP act inh RFP: -2.4

Results for NC(=O)CCCn1c(C(=O)c2cc(Cl)c(N)c(Cl)c2)c2ccc(C(F)(F)F)cc2[n+]1[O-] ?
CSC inhib: -7.0; Rce1 inhib: active; HIV Env fusion: -18.8; MT1-MMP act inh: 3.7; Yeast UUG start: 15.9; MT1-MMP act inh RFP: 1.5

How did CCCCN1CC(=O)N2[C@H](c3ccc(Cl)cc3)[C@@H]3C(=O)N(CC)C(=O)[C@@H]3[C@]2(Cc2ccccc2)C1=O do in these assays?
CSC inhib: -4.3; Rce1 inhib: inactive; HIV Env fusion: -6.3; MT1-MMP act inh: -4.5; Yeast UUG start: -15.9; eIF4H FP inh: -1.3; PABP polyA inh: 7.6; MT1-MMP act inh RFP: 0.6

How did O=C(N/N=C/c1cccnc1)c1cc(-c2ccccc2)nc2ccccc12 do in these assays?
CSC inhib: -6.4; Rce1 inhib: inactive; HIV Env fusion: 1.8; MT1-MMP act inh: -3.1; Yeast UUG start: -10.3; eIF4H FP inh: -1.0; PABP polyA inh: 2.6; MT1-MMP act inh RFP: -4.0

Results for COc1ccc(OCC(=O)Nc2cccc(C(C)=O)c2)cc1 ?
CSC inhib: -3.5; Rce1 inhib: inactive; HIV Env fusion: -46.3; MT1-MMP act inh: 7.8; Yeast UUG start: -8.5; eIF4H FP inh: -4.5; PABP polyA inh: 4.4; MT1-MMP act inh RFP: 1.5

Results for COc1cc2[nH]c(=O)n(Cc3ccc(C(=O)NCCCN4CCN(C)CC4)cc3)c(=O)c2cc1OC ?
CSC inhib: -4.0; HIV Env fusion: 5.4; MT1-MMP act inh: 3.9; Yeast UUG start: -13.4; eIF4H FP inh: 2.1; PABP polyA inh: -3.2; MT1-MMP act inh RFP: 4.0

What do the screens show for `COc1ccc(NC(=O)COC(=O)c2ccc(N3CCCC3=O)cc2)cc1`?
CSC inhib: -1.4; MT1-MMP act inh: 2.4; Yeast UUG start: -3.5; MT1-MMP act inh RFP: 6.2

Results for CCOc1ncccc1C(=O)OCc1ccc([N+](=O)[O-])cc1 ?
CSC inhib: -3.2; Rce1 inhib: inactive; HIV Env fusion: 8.7; MT1-MMP act inh: 5.4; Yeast UUG start: -6.5; eIF4H FP inh: 3.3; PABP polyA inh: 0.3; MT1-MMP act inh RFP: 1.2

Results for O=C(CN1CCN(Cc2ccc3c(c2)OCO3)CC1)N1CCc2[nH]c3ccccc3c2C1 ?
Rce1 inhib: inactive; eIF4H FP inh: 4.3; PABP polyA inh: 8.8

What do the screens show for `CC1CCCN(S(=O)(=O)c2ccc(NC(=O)CN3C(=O)NC(C)(c4ccccc4)C3=O)cc2)C1` (stereo not given)?
CSC inhib: -14.2; Rce1 inhib: inactive; HIV Env fusion: 14.8; MT1-MMP act inh: 4.6; Yeast UUG start: -2.3; MT1-MMP act inh RFP: -1.6

Results for Cc1ccc(S(=O)(=O)N(C)CC(=O)N2CCc3ccccc32)cc1 ?
CSC inhib: -1.9; Rce1 inhib: inactive; HIV Env fusion: -5.8; MT1-MMP act inh: 3.7; eIF4H FP inh: -3.0; PABP polyA inh: -7.7; MT1-MMP act inh RFP: 1.1

What do the screens show for `CCOC(=O)c1ccc(NC(=O)NCc2ccccn2)cc1`?
CSC inhib: 7.4; Rce1 inhib: inactive; HIV Env fusion: -7.7; MT1-MMP act inh: -3.3; Yeast UUG start: -39.0; eIF4H FP inh: -3.0; PABP polyA inh: -3.4; MT1-MMP act inh RFP: 1.9

Results for CC(C)(C)C1(O)CC(C(F)(F)F)=NN1C(=O)CCCc1ccccc1 (stereo not given) ?
CSC inhib: -6.9; Rce1 inhib: inactive; HIV Env fusion: 17.5; MT1-MMP act inh: -1.2; eIF4H FP inh: 1.0; PABP polyA inh: 32.7; MT1-MMP act inh RFP: -2.5

What do the screens show for `CCOC(=O)c1cnn(-c2nc(CC)nc3sc4c(c23)CCC4)c1N`?
CSC inhib: -1.5; Rce1 inhib: inactive; MT1-MMP act inh: -0.5; eIF4H FP inh: 6.6; PABP polyA inh: 7.5; MT1-MMP act inh RFP: 5.1

Results for COc1ccc(N2CCN(C(CNS(C)(=O)=O)c3ccco3)CC2)cc1 (stereo not given) ?
CSC inhib: -3.9; Rce1 inhib: inactive; HIV Env fusion: -11.7; MT1-MMP act inh: 0.2; Yeast UUG start: 1.5; eIF4H FP inh: -14.0; PABP polyA inh: -1.6; MT1-MMP act inh RFP: -6.2

What do the screens show for `O=C(CSc1ccccc1F)NC(=O)NCc1ccco1`?
CSC inhib: -11.0; Rce1 inhib: inactive; HIV Env fusion: -10.0; MT1-MMP act inh: -2.1; Yeast UUG start: -14.2; eIF4H FP inh: 77.0*; PABP polyA inh: 13.5*; eIF4H FP inh retest: 66.9*; PABP polyA inh retest: 72.6*; MT1-MMP act inh RFP: 3.2

Results for Cc1cc(-c2csc(N)n2)c(C)n1Cc1ccco1 ?
CSC inhib: -0.9; Rce1 inhib: inactive; HIV Env fusion: -1.6; MT1-MMP act inh: 6.0; eIF4H FP inh: inconclusive; PABP polyA inh: 1.1; MT1-MMP act inh RFP: 3.9

What do the screens show for `CCOC(=O)N1CCN(C(=O)CSc2nc3c(c(=O)n2-c2ccccc2OC)SCC3)CC1`?
CSC inhib: -10.7; Rce1 inhib: inactive; MT1-MMP act inh: 2.3; Yeast UUG start: -24.7; eIF4H FP inh: -10.0; PABP polyA inh: -4.1; MT1-MMP act inh RFP: 0.3

How did O=C(Nc1cc(-c2ccccc2)nn1C1CCCCC1)c1ccc(Cl)cc1 do in these assays?
HIV Env fusion: 31.7; MT1-MMP act inh: 0.4; Yeast UUG start: -12.3; MT1-MMP act inh RFP: -7.8

How did CC(C)(C)NC(=O)c1ccc(NC(=O)C2COc3ccccc3O2)cc1 (stereo not given) do in these assays?
CSC inhib: -14.7; Rce1 inhib: inactive; HIV Env fusion: -28.1; MT1-MMP act inh: -0.4; Yeast UUG start: 5.8; eIF4H FP inh: -3.3; PABP polyA inh: -12.9; MT1-MMP act inh RFP: -0.9

How did O=C(NC1CCN(Cc2ccccc2)CC1)C1CCN(S(=O)(=O)c2cccc([N+](=O)[O-])c2)CC1 do in these assays?
CSC inhib: -3.6; Rce1 inhib: inactive; MT1-MMP act inh: 3.4; Yeast UUG start: -5.5; eIF4H FP inh: 3.1; PABP polyA inh: 1.6; MT1-MMP act inh RFP: -6.2

What do the screens show for `C[C@H](CO)N1C[C@H](C)[C@@H](CN(C)Cc2ccncc2)Oc2c(NS(=O)(=O)c3ccccc3)cccc2C1=O`?
HIV Env fusion: -13.6[16.7 µM]; MT1-MMP act inh: -5.6; Yeast UUG start: -5.6&-9.0; MT1-MMP act inh RFP: -3.7

What do the screens show for `CCOC(=O)c1cccc(NC(=O)CCS(=O)(=O)c2cccc3nsnc23)c1`?
CSC inhib: 0.4; Rce1 inhib: inactive; HIV Env fusion: 16.4; MT1-MMP act inh: 3.7; eIF4H FP inh: 0.7; PABP polyA inh: -0.7; MT1-MMP act inh RFP: 0.8

Results for O=S(CC(O)COCc1ccc(Cl)cc1)c1ccccn1 (stereo not given) ?
CSC inhib: -17.9; Rce1 inhib: inactive; MT1-MMP act inh: 1.1; eIF4H FP inh: 3.9; PABP polyA inh: -1.6; MT1-MMP act inh RFP: -2.0

Results for CCOC(=O)CCc1c(C)nc(-n2[nH]c(C)c(CCO)c2=O)[nH]c1=O ?
CSC inhib: -15.6; Rce1 inhib: inactive; HIV Env fusion: -4.9; MT1-MMP act inh: 2.2; Yeast UUG start: -13.9; eIF4H FP inh: 6.5; PABP polyA inh: 15.7; MT1-MMP act inh RFP: 6.3

Source: PubChem BioAssay (several laboratories)
